# Cruzain inh noDet = qHTS Assay for Promiscuous and Specific Inhibitors of Cruzain (without detergent). purified cruzain, Z-FR-AMC fluorescence, no detergent. Cruzipain (Trypanosoma cruzi), P25779. Potency, µM, for the others: max response, negative = inhibition, actives largely listed as inhibitors. 2.3% of 200,000 active;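 note: plate controls were enzyme without inhibitor for no effect and buffer without enzyme for full effect; nearly all actives have a fitted effect of over 40% in size; top concentration of the series not given in the record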
# Target sequence (P25779 123-467 limits assumed): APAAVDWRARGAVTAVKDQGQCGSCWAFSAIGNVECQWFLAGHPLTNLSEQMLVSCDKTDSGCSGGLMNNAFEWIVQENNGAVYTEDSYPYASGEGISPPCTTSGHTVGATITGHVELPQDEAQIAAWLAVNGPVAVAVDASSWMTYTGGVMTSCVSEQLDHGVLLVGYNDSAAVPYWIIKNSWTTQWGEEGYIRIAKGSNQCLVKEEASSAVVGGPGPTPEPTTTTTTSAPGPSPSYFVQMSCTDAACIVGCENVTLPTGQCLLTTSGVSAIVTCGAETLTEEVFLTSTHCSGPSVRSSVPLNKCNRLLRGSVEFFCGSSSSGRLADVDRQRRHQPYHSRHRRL
#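 Detergent-free condition (0.00005% Triton X-100) in acetate buffer pH 5.5 with DTT. 1.5 nM enzyme and compound were pre-mixed 15 min, then 2 uM Z-FR-AMC substrate added; reaction progress from fluorescence change between first and third reads (60 s).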
# SARS PLP yeast = qHTS of Yeast-based Assay for SARS-CoV PLP; 0.19% of 330,000 active; S. cerevisiae expressing SARS-CoV PLpro, growth rescue; control for the full effect not named in the record; Potency, µM (top dose mostly 32.9 µM), for inactives: top-dose activity, positive = growth rescue; active means well fitted rising curve with a large enough effect; inconclusive means small, poorly fitted or top-dose-only effect; inactive means no such curve, though single readings can be large or run the other way; note: 0% is about no effect; nearly all actives have a fitted effect of over 55% in size; growth read by luminescence after 48 h
# NS1 function inh = qHTS Assay for Inhibitors of Influenza NS1 Protein Function. Potency, µM (series often up to 46.1 µM), for the others: at the highest dose activity, positive = more growth. S. cerevisiae slowed by influenza A NS1, growth recovery by OD600. 0.4% of 270,000 active; active means well fitted rising curve with a large enough effect; inconclusive means small, poorly fitted or top-dose-only effect; inactive means no such curve, though single readings can be large or run the other way; note: nearly all actives have a fitted effect of over 50% in size
#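 Growth recovery, yeast-based: influenza A NS1 expressed in S. cerevisiae causes slow growth, and suppressors are detected by OD600. The parent strain without NS1 is used as positive control.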
# Marburg entry inh = qHTS for inhibitors of binding or entry into cells for Marburg Virus; Marburg virus pseudotyped entry inhibition, cell reporter; control for the full effect not named in the record; about a third of the inactives were read at about 46 µM; Potency, µM (top dose mostly 37.8 µM), for inactives: top-dose activity change, negative = inhibition, usual class: inhibitors; 1.8% of 300,000 active; AID 540276, 2011; active = well fitted inhibition curve with a large enough effect; inconclusive = small, poorly fitted or top-dose-only effect, or effect the other way; inactive = flat fitted curve, though single readings scatter; tested in HEK293 cells; about a fifth of its hits are not listed in these tables; note: % is set by controls: 0 for no effect and ±100 for the full control effect; luciferase read-out
# RE007 growth inh = qHTS Assay for Inhibitors of the HIV-1 protein Vpr; 0.21% of 360,000 active; S. pombe RE007 Vpr strain, BacTiter-Glo ATP luminescence, 24 h; control for the full effect not named in the record; Potency, µM (doses to about 92.2 µM), for the others: at the top dose activity change, negative = less growth; active = well fitted falling curve with a large enough effect; inconclusive = small, poorly fitted or top-dose-only effect; inactive = no such curve, though single readings can be large or run the other way;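 note: % is set by controls: 0 for no effect and ±100 for the full control effect; nearly all actives have a fitted effect of over 50% in size; the assay follows cell death caused by Vpr and the record does not say whether a fall means rescue or toxicity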
#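 Fission yeast RE007 carrying one integrated HIV-1 vpr copy, seeded at OD 0.01 in PMG+AL medium with 23 nL pinned compound. Grown 24 h at 30 degrees; viability read by BacTiter-Glo luminescence after 5 min.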
# StopGo reporter = High Throughput Screening for Foot and Mouth Disease Virus Antivirals | human cells with a luciferase reporter of 2A StopGo recoding; control for the full effect not named in the record | Potency, µM (titrated, usually from 57.9 µM), without a hit: at the highest dose signal change, negative = less light | 1.2% of 410,000 active; active = well fitted falling curve with a large enough effect; inconclusive = small, poorly fitted or top-dose-only effect; inactive = no such curve, though single readings can be large or run the other way; tested in HEK293T cells; note: % is set by controls: 0 for no effect and ±100 for the full control effect; nearly all actives have a fitted effect of over 45% in size; luciferase light after 4 h
# Cruzain inh Det = qHTS Assay for Promiscuous and Specific Inhibitors of Cruzain (with detergent) | Cruzipain (Trypanosoma cruzi), P25779 | purified cruzain, Z-FR-AMC fluorescence, 0.01% Triton | Potency, µM, without a hit: max response, negative = inhibition, usual class: inhibitors | 0.43% of 200,000 active | AID 1478, 2009;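 note: plate controls were neutral wells for no effect and buffer without enzyme for full effect; nearly all actives have a fitted effect of over 40% in size; top concentration of the series not given in the record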
#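 15 min RT preincubation of 1.5 nM cruzain with compound, then 2 uM Z-FR-AMC added; kinetic AMC fluorescence, 60 s delta. Triton X-100 0.01%, pH 5.5.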
# Lassa entry inh = qHTS for Inhibitors of binding or entry into cells for Lassa Virus | Potency, µM (series often up to 37.9 µM), inactives show at the highest dose activity change, negative = inhibition, hits mostly inhibitors | Lassa virus pseudotype entry inhibition, cell reporter; control for the full effect not named in the record | AID 540256, 2011 | 1.2% of 300,000 active; active means well fitted inhibition curve with a large enough effect; inconclusive means small, poorly fitted or top-dose-only effect, or effect the other way; inactive means flat fitted curve, though single readings scatter; tested in HEK293 cells; note: % is set by controls: 0 for no effect and ±100 for the full control effect; nearly all actives have a fitted effect of over 50% in size; luciferase read-out
# Active calls of the source: *; ? = inconclusive; . = not tested or not shown; & = joins results of further samples; [ ] = another dose, or the depositor's remark. Unless noted, calls come from the whole dose curve; as a rule, active = well fitted curve in the direction sought with a large enough effect; inconclusive = small, poorly fitted or top-dose-only effect, or another doubt; inactive = no such curve, though single readings can be large; an effect the other way counts as inactive or inconclusive. Potency is the fitted concentration of half-maximal effect.
SMILES,Cruzain inh noDet,SARS PLP yeast,NS1 function inh,Marburg entry inh,RE007 growth inh,StopGo reporter,Cruzain inh Det,Lassa entry inh
Cc1ccc(Nc2c(-c3ccc(O)cc3)nc3cccc(C)n23)cc1,2%,.,.,2%[46.1 µM],.,17%,-9.1%,-18%[46.1 µM]
CC(C)(C)OC(=O)N1CCC(c2c(C(=O)NCCCN3CCc4ccccc4C3)cnn2-c2ccccc2)CC1,-5%,.,.,.,.,-5%,-0.2%,?
CCOc1ccc(Nc2nc(N)nc(CN3CCN(c4ccccc4F)CC3)n2)cc1,.,-1%,.,?,5%,?,.,?
C/C(=C\C(=O)c1ccccc1)Nc1ccc(Br)c(Cl)c1,7%,5%,-9%,-2%,-21%,18%,1.3%,.
Cc1cc(S(=O)(=O)NC2CCCCC2)ccc1OCC(=O)NCc1ccccn1,-9%,6%,-4%,-23%,25%,26%,7.3%,0%
CCn1c(C(C)NC(=O)c2ccccc2C)n[nH]c1=S (stereo not given),.,0%,7%,.,3%,4%,.,.
CC(=O)Nc1ccc(S(=O)(=O)NCc2cccn2Cc2cccc(C)c2)cc1,2%,.,.,.,.,0%,-4.9%,?
CC(C)CCOc1ccc(C2(C)NC(=O)N(CN3CCOCC3)C2=O)cc1 (stereo not given),6%,-4%,-1%,8%,-1%,-18%,0.9%,-6%
CCOC(=O)C1=C(C)Nc2nnnn2C1c1ccc(OC)c(Br)c1 (stereo not given),6%,10%,-9%,2%&2%,-5%,-14%,-2.9%,-2%
O=C1CC(N2CCC(c3nc4ccccc4s3)CC2)C(=O)N1Cc1ccccc1 (stereo not given),?,-21%,-48%,0%,-3%[3.69 µM],?,1.3%,-25%
O=S(=O)(NCCc1csc(-c2cccnc2)n1)c1ccc(Cl)s1,-7%,-14%,-194%,.,4%,-12%,-0.5%,.
CCCCN(CC)CCCNC(=O)c1cc2c(-c3ccc(OC)c(OC)c3)nn(C)c2s1,-6%,3%,-1%,?,-21%,-13%&-3%,-7.2%,?
Cc1ccc(/C=N/NC(=S)N2CCOCC2)cc1,-3%,-17%,-18%,3%,.,35%[activator],-5.5%,?
C/C(=N\NC(N)=S)c1cc(-c2ccccc2)c(-c2ccccc2)s1,.,9%,-14%,?,-6%,-17%,.,?
COc1ccc(Nc2nc(-c3ccc4c(c3)NC(=O)CO4)cs2)cc1,.,-3%,.,-18%[46.1 µM],0%,?,.,?
CCOC(=O)c1ccccc1NC(=S)N1CC(C)CC(C)C1 (stereo not given),-4%,-58%,-17%,16%,-18%,-13%,-2.2%,0%
Cc1cc(NCCCn2ccnc2)n2nc(C)c(-c3ccc(Cl)cc3)c2n1,-5%,16%,-2%,?,-13%,-21%,-0.1%,-10%
CCc1cc2c(cc3c(=O)n(CC(=O)NC4CCCCC4)ncn32)s1,-11%,.,.,4%[46.1 µM],.,10%,0.5%,.
Cc1ccc(CN2C(=O)C3CCCN3c3ncccc32)cc1 (stereo not given),.,0%,2%,.,-9%,-23%,.,.
CCCS(=O)(=O)N1CCN(C2CCC(C)CC2)CC1 (stereo not given),.,1%,0%,-1%[46.1 µM],-1%,-18%,.,.
Cc1cc(C)cc(NC(=O)C2CCN(c3nc(C)cc(C)n3)CC2)c1,?,-10%,1%,-13%,3%,25%,1.6%,-10%
COC(=O)c1c(NC(=O)CCCC(=O)O)sc(C)c1C,-9%,0%,-73%,7%,2%,-3%,-3.8%,5%
O=C(O)CC1C(=O)NCCN1C/C=C/c1ccccc1 (stereo not given),-12%,3%,6%,.,6%,-4%,-1.5%,.
CCC(C(=O)NC1CCCCC1)n1nc(C)c2c(C)n(-c3ccccc3)nc2c1=O (stereo not given),.,3%,16%,7%[46.1 µM],8%,-3%,.,22%[46.1 µM]
Cc1ccc(C2NC(=O)NC(O)(C(F)(F)F)C2C(=O)c2ccccc2)o1 (stereo not given),-13%,8%,8%,-7%,8%,25%,3.1%,-12%[14.3 µM]
CC(C)(C)c1ccc(S(=O)(=O)n2c(CN3CCOCC3)nc3ccccc32)cc1,6%,-6%,-65%,-2%,0%,?,4.7%,-18%
CC(=O)c1ccc(N2C(=O)C3C(C2=O)C(C(=O)c2ccc(Cl)cc2)N2CCCC32)cc1 (stereo not given),11%,-6%,-8%,?,-7%,?,-14%,-1%
CC(C)[C@H](NC(=O)c1ccccc1F)C(=O)NCCc1ccccc1,.,-2%,-6%,2%[46.1 µM],2%,1%,.,12%[46.1 µM]
Cc1ccc(NC(=O)c2c(C)nc3sc(C(=O)Nc4ccc(F)cc4)c(N)c3c2-c2ccccc2Cl)c(C)c1,?,.,.,-28%[46.1 µM],.,-6%,-2.6%,2%[46.1 µM]
CCCCN1CC(O)=C(c2nc3ccccc3s2)C1=N,-5%,-6%,-47%,?,?,59%[activator],-5.2%,-3%
CC1CCN(CC(=O)Nc2cccc(Cl)c2)CC1,.,0%,4%,?,-13%,-5%,.,1%[46.1 µM]
Cc1ccc2nc(-c3cccc(NC(=O)c4ccc5c(c4)OCCO5)c3)oc2c1,-29%,0%,-3%,16%,-5%,26%,2.3%,17%
Cc1cccc(-c2ccc(C=Nc3c(C)n(C)n(-c4ccccc4)c3=O)o2)c1,2%,11%,-33%,?,-5%,11%,-7.3%,?
Cn1c(=O)c2c(O)c(C=Nc3ccc(F)cc3)c(=O)n(C)c2n(C)c1=O,.,0%,3%,-12%[46.1 µM],1%,-13%,.,-2%[46.1 µM]
CC(C)(C)N=C1NN=C(c2ccc(S(=O)(=O)N3CCCCC3)cc2)CS1,.,5%,.,?,12%,-3%,.,-30%
CCOC(=O)/C(=N\Nc1ccccc1Cl)N1CC(C)OC(C)C1 (stereo not given),.,0%,-51%,?,173%,0%,.,-6%[46.1 µM]
COc1ccc(C2=NOC(C(=O)Nc3cccnc3)C2)cc1 (stereo not given),6%,8%,-4%,3%,?,-22%,6.8%,4%
O=C(NC1CC1)C1=C[C@@H](c2ccc3c(c2)OCO3)C[C@@H](OCCCCO)O1,.,3%,6%,.,6%,-4%,.,.
CC(=O)Nc1ccc(NC(=O)C(C)OC(=O)[C@@H]2CCCN2C(=O)c2cccs2)cc1 (stereo not given in full),.,-1%,.,0%,0%,6%,.,?
CCOC(=O)C1CCN(C(=O)c2ccccc2NS(=O)(=O)c2cc(C)ccc2C)CC1,16%,?,-7%,-3%,-3%,0%,-4.9%,?
COc1cc(NC(=O)CCc2nnc3ccc(N4CCOCC4)nn23)cc(OC)c1OC,.,3%,4%,-4%[46.1 µM],-3%,-6%,.,1%[46.1 µM]
COc1ccc(N2C(=O)CC(N3CCN(C4CCc5ccccc5C4)CC3)C2=O)cc1 (stereo not given),4%,-3%,-28%,1%,9%,-6%,6.9%,-17%
CCN(Cc1ccc(OC)c(F)c1)C(=O)C1CCCO1 (stereo not given),.,-2%,6%,-1%[46.1 µM],14%,3%,.,?
COc1cccc(C(c2sc3nc(C)nn3c2O)N2CCN(c3ccccc3F)CC2)c1 (stereo not given),?,17%,-22%,.,5%,0%,-6.9%,.
CCC1CCCCN1C(=O)c1nn(-c2ccc(OC)cc2)c(=O)c2c1c1ccccc1n2C (stereo not given),-2%,.,.,1%[46.1 µM],.,-25%,-0.5%,-4%[46.1 µM]
COc1ccc(-c2nc(CCNC(=O)c3c(F)cccc3Cl)cs2)cc1,-13%,.,.,.,.,-23%,-11%,-18%[46.1 µM]
CCc1noc(C)c1C(=O)N1CCN(S(=O)(=O)c2cc(C)ccc2C)CC1,.,2%,3%,-3%,2%,-7%,.,-16%
COc1ccc(NS(=O)(=O)c2cccc3nsnc23)cc1OC,0%,0%,-1%,-10%,6%,.,0.6%,11%
CCOC(=O)C1(CCCc2ccccc2)CCN(C(=O)CCc2cnccn2)CC1,.,0%,-9%,?,-11%,-7%,.,?
Cc1cccc(C)c1OCc1cc(=O)n2c(-c3ccccc3)csc2n1,-30%,.,.,-26%[46.1 µM],.,?,-6.2%,7%[46.1 µM]
c1ccc(-c2csc(NC3=NCCCCC3)n2)cc1,7%,2%,-4%,?,4%,1%,-5.4%,12%
O=C(CCSc1ccccc1)Nc1ncccn1,6%,0%,-6%,20%,5%,.,-0.5%,16%
CCOC(=O)CNC(=O)c1sc(NC(=O)/C=C/c2ccccc2)nc1C,.,-2%,0%,.,1%,2%,.,.
CCOc1cc(/C=C2\C(=O)N(c3ccc(C(N)=O)cc3)N=C2C)ccc1OC(=O)c1cccs1,?,6%,?,5%,-12%,?,-29%,15%
COC(=O)c1ccccc1NC(=O)C1CC(c2ccccc2O)=NO1 (stereo not given),2%,4%,0%,5%,-4%,-5%,-3.7%,0%
CC(Sc1ccccc1)C(=O)N(CCC#N)Cc1cccnc1 (stereo not given),.,3%,.,7%[46.1 µM],-7%,5%,.,11%
Cc1cc(C)nc(N2CCCC(C(=O)Nc3ccc(F)cc3)C2)n1 (stereo not given),.,1%,-14%,?,-4%,2%,.,-1%[46.1 µM]

# Screens as filed in PubChem.
